HIV Env fusion – blocks HIV Env-driven cell-cell fusion | 1.1% of 360,000 active | inhibition, % at 12.3 µM | HeLa-JRFL Env/CEM21 cell fusion, luciferase | AID 651610;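 active means mean replicate inhibition score of at least 50 and every replicate individually at or above 50; inconclusive means only one of the two criteria met; inactive means mean below 50 and not all replicates reaching 50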;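 further: 0% = plate neutral controls and 100% = maraviroc near 300 nM; one replicate is shown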
Rce1 inh – yeast Ras-converting enzyme inhibition | Q03530 | yeast membranes, quenched prenylated peptide cleavage fluorescence | calls only | 0.27% of 290,000 active;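 active means fall in fluorescence gain of 50% or more versus controls, with final raw signal at or below 3038400; inconclusive means same 50% fall but final raw signal above 3038400; inactive means fall in fluorescence gain under 50%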;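 further: plate controls were neutral control wells for no effect and wells lacking membranes for full effect; tested at 10 µM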
Target sequence (Q03530 whole entry, looked up): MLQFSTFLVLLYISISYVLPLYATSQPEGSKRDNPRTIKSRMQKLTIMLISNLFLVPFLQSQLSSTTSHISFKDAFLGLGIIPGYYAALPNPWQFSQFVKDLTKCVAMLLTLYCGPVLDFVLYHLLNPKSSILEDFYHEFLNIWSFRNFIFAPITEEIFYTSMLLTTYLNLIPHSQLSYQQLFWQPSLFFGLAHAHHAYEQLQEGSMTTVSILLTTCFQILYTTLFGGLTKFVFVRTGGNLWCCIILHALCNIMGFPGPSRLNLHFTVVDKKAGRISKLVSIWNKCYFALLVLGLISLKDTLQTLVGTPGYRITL
MT1-MMP act inh – inhibitors of human MT1-MMP activation; 0.061% of 360,000 active; GFP/RFP ratio change, % at 20 µM; AID 651647; HT1080 RFP-PRO-GFP cells, GFP/RFP ratio fluorescence, overnight; percent of plate control window, DMSO zero; P50281;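 active means GFP/RFP ratio change of at least 30% with cell ATP level not reduced by more than half and red fluorescence within 50% of control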; further: strong numbers were not always called active
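Read-out: GFP/RFP fluorescence ratio; Test system: RFP-PRO-GFP reporter HT1080 cells; Compound dosing: single-point 20 µM compound, 1% DMSO; Times: overnight compound exposure at 37 °C.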
CSC inhib – cancer stem cell inhibition. 1.1% of 300,000 active. cancer stem cell-like cells viability, luminescence. inhibition, % at 7.5 µM;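 active means mean at 75% or more and at least half the replicates too; inconclusive means mean and replicates disagree; tested in HMLE shEcad cells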;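 further: 0% = median of negative and 100% = median of positive control wells; the first replicate is given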
eIF4H FP inh – inhibitors of RNA binding by human eIF4H; eIF4H fluorescence polarization binding assay; inhibition, % at 35 µM; Q15056; 0.94% of 290,000 active;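 active means 50% or more with normal probe brightness, or confirmed in later tests; inconclusive means above 50% with abnormal brightness, or retests that disagree; inactive means below 50% or failed in later tests; about a fifth of its hits are not listed in these tables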;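 further: calls also rest on retests at 20 µM and on dose response follow-up; 0% = protein and probe with vehicle and 100% = probe without protein; strong numbers were not always called active; many hits fall short of the cut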
UUG fidelity – alters start codon recognition fidelity in yeast | S. cerevisiae UUG-firefly luciferase reporter, luminescence/redox ratio | activity score, % at 18.7 µM | 0.13% of 350,000 active;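 active means replicate mean at a twofold rise or more, about +100% in these data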;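 further: firefly luciferase made from a UUG start codon reports start codon fidelity; reporter light over untreated wells divided by growth signal over untreated wells; some hits fall short of that in this replicate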
PABP polyA inh – PABP-poly(A) binding inhibition; AID 2014; inhibition, % at 35 µM; 1% of 290,000 active; P11940; PABP-poly(A) RNA binding, fluorescence polarization;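 active means 50% or more with normal probe brightness, or confirmed in later tests; inconclusive means above 50% with abnormal brightness, or retests that disagree; inactive means below 50% or failed in later tests; about a fifth of its hits are not listed in these tables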;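 further: calls also rest on retests at 20 µM and on dose response follow-up; controls were probe without protein and protein plus probe with vehicle; some compounds called inactive have numbers as strong as hits; many hits fall short of the cut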
Target sequence (P11940 whole entry, looked up): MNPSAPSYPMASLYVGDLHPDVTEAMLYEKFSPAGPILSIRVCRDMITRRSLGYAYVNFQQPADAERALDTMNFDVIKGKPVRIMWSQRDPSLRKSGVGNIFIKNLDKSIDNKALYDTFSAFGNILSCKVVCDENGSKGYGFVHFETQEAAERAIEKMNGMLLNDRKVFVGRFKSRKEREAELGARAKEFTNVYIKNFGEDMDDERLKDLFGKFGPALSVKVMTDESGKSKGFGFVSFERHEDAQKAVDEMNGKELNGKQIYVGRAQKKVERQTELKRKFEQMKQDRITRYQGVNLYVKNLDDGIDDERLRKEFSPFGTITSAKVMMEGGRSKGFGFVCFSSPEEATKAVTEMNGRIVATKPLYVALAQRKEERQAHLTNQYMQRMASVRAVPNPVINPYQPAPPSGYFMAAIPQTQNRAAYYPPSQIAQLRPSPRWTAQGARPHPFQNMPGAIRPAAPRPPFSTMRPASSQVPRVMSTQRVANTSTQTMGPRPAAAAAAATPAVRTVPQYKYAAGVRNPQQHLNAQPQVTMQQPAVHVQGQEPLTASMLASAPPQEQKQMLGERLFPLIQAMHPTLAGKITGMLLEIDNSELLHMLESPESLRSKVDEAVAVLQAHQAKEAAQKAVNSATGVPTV
eIF4H FP inh retest – second read-out of eIF4H FP inh, no call of its own (marks repeat the call); inhibition, %; compound at 20 µM; confirmation average;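 mean of two retest wells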
PABP polyA inh retest – further read-out of PABP polyA inh, marked with its call; inhibition, %; compound at 20 µM; confirmation repeats;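 mean of two retest wells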
MT1-MMP act inh RFP – further read-out of MT1-MMP act inh, marked with its call; RFP signal change, %; measured here: RFP expression control read;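 0 = vehicle wells; hits needed this value within 50% of zero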
* hit, by the source's call; i = inactive; ? = inconclusive; . = not tested or not shown; + = active, no number. Random draw from the library, and some 3% of all compounds hit somewhere here.

SMILES	HIV Env fusion	Rce1 inh	MT1-MMP act inh	MT1-MMP act inh RFP	CSC inhib	eIF4H FP inh	UUG fidelity	PABP polyA inh	others
CN(CC1COc2ccccc2O1)C(=O)c1cccc(S(=O)(=O)N2CCCC2)c1 (stereo not drawn)	-10.5	.	8.1	0.0	-6.3	.	1.0	.
C#CCn1cc(/C=N/Nc2nc3ccccc3[nH]2)c2ccccc21	-64.2	i	12.2	-14.0	91.8*	14.9	.	-11.4
O=C(CN1CCN(S(=O)(=O)c2ccccc2)CC1)Nc1ccc(Cl)cn1	5.1	i	1.6	-4.2	1.9	-2.3	-6.0	8.9
CC1(C)Cc2c(sc3c2C2=NCCN2C=N3)CO1	-67.8	i	-0.3	6.9	-4.0	8.6	-10.1	29.5
CC(C)OCCCNC(=O)CCSc1ccc(Cl)cc1	-94.0	i	1.2	5.3	-7.9	1.5	-6.1	-9.7
CCCCCCCCCCOC(=O)c1csc2nnsc12	13.5	i	0.2	3.1	9.4	-3.2	-13.0	-2.4
CCOC(=O)C1CCN(Cc2oc(CO)cc(=O)c2O)CC1	-48.7	.	-4.2	-4.3	-1.2	-1.6	-17.1	-5.0
COC(c1ccccc1)c1nnc(CCC(=O)N2CCCCCCC2)o1 (stereo not drawn)	-13.1	.	-14.1	-2.5	-3.0	-4.8	-15.7	-1.5
O=C(Nc1cc(Br)ccc1O)C1CC(c2c(F)cccc2Cl)=NO1 (stereo not drawn)	-1.6	i	-0.5	-3.2	5.9	-13.8	-12.9	-7.1
CCOC(=O)NN1C(=O)c2ccccc2NC1c1ccccc1F (stereo not drawn)	8.4	i	-0.1	2.0	-6.6	1.1	-2.2	-12.9
COc1ccc(S(=O)(=O)N(C)CC(=O)Nc2ccccc2C(F)(F)F)cc1OC	.	i	3.9	2.2	.	-2.6	14.6	-5.7
O=C(Cc1ccc(NC2=NC3CS(=O)(=O)CC3S2)cc1)N1CCN(c2ccc(F)cc2)CC1 (stereo not drawn)	-76.5	i	2.6	7.0	-9.4	-1.1	-17.7	1.0
Cc1ccccc1Nc1nc(N)nc(CSCc2c(C)noc2C)n1	.	i	8.4	-2.4	.	16.3	-19.3	1.9
CN(C)C(CNC(=O)Cc1cccc(C(F)(F)F)c1)c1ccccc1 (stereo not drawn)	25.2	i	-0.4	4.3	-2.8	-2.2	-8.2	11.5
COc1ccc(S(=O)(=O)N2CCC(C(=O)NCCN3CCOCC3)CC2)cc1C	10.2	i	-0.6	1.8	-9.2	2.0	-1.4	2.5
Cc1cc(=O)oc2c3c(cc(OCC(=O)N4CCC(C(=O)O)CC4)c12)OC(C)(C)CC3	.	+	8.9	6.7	-9.5	-3.8	-11.5	2.4
CC1CC(C)CN(C(=O)COC(=O)c2ccc3c(c2)OCCO3)C1 (stereo not drawn)	-3.3	.	-4.4	4.4	-14.5	.	17.6	.
O=C(NCCO)/C(=C\c1cccs1)NC(=O)c1cccs1	7.4	i	1.0	4.4	.	3.4	.	120.4*	eIF4H FP inh retest=-8.7;PABP polyA inh retest=53.3*
CCCCCCN1C[C@@H](O)[C@H](n2cc(C3CC3)nn2)C[C@@H]1c1ccc(OC)cc1	-152.2	.	-1.3	3.9	.	.	-5.3	.
COc1ccc(-c2oc3ccccc3c2C#CC(C)(C)O)cc1	-45.9	.	0.1	-2.8	-2.4	.	-5.8	.
COc1cc(NC(=O)c2ccc(S(=O)(=O)N(C)C)cc2)cc(OC)c1OC	.	i	1.8	-7.2	-4.7	-10.4	.	-4.4
O=C(NC1CCCN(c2ccc(C(F)(F)F)cn2)C1)c1cc(Cl)ccc1F (stereo not drawn)	19.7	.	1.2	-0.3	1.7	1.5	-8.5	-12.6
CC(=O)Nc1ccc2[nH]c3ccccc3c2c1	.	.	6.6	-1.9	21.1	99.1*	.	72.9*	eIF4H FP inh retest=90.6*;PABP polyA inh retest=97.7*
CCc1ccc([C@@H]2CC=C(C(=O)O)[C@H](c3ccc(Cl)cc3)N2S(=O)(=O)c2ccc(C)cc2)cc1	3.7	.	-2.3	3.4	79.1*	.	-9.2	.
CC[C@@]12C(=O)N(c3ccc(C)cc3)C(=O)N1[C@H](c1ccc(Br)cc1)[C@@H]1C(=O)N(C(C)(C)C)C(=O)[C@@H]12	85.6*	i	-4.5	-7.6	-2.8	0.7	-6.6	14.4
Cc1c(C)n(C)c2ccc(C(=O)NCCCN(C)C3CCCCC3)cc12	0.7	i	6.6	4.5	-3.1	3.3	-8.2	1.6
C=CCNC(=O)c1cc2c(=O)c3ccccc3oc2nc1C	1.8	i	-7.6	4.5	3.4	9.7	-26.8	0.0
Cc1cccc(-c2n[nH]c(=S)n2C)c1	21.2	i	3.8	8.0	6.8	-7.7	.	6.1
Cc1cccc(NC(=O)CCC(=O)N/N=C/c2ccncc2)c1	23.5	i	1.0	0.7	-9.5	-7.3	.	15.6
O=C(CCl)Nc1cc(S(=O)(=O)N2CCOCC2)ccc1N1CCOCC1	13.7	i	.	.	-13.4	4.3	.	-5.6
CC(Oc1ccc(Cl)cc1Cl)C(=O)Nc1ccc(S(=O)(=O)Nc2cnc3ccccc3n2)cc1 (stereo not drawn)	.	i	.	.	30.9	8.4	.	11.2
O=S(=O)(Nc1ccc2c(c1)OCCO2)c1ccc(Br)s1	.	i	-4.3	-10.7	0.0	-13.5	-12.3	-3.7
CCCS(=O)(=O)NC(=O)C1(C)CCCN(C(=O)/C=C/c2ccccc2)C1 (stereo not drawn)	-27.5	.	-1.6	-0.3	.	.	-8.0	.
CCOC(=O)C1=NNC2(c3ccc(Cl)cc3)C(=O)N(c3cc(C)cc(C)c3)C(=O)C12 (stereo not drawn)	.	i	-0.3	-0.2	6.3	78.6	-14.9	4.1	eIF4H FP inh retest=-9.3;PABP polyA inh retest=5.8
C/C(=N\NC(=O)c1cc(O)ccc1O)c1cccc(NC(=O)c2ccc(Cl)cc2)c1	-20.3	i	4.3	0.2	.	90.0*	-21.2	87.0*
Cc1cc(C)n2c(SCC(=O)N(C)C3CCS(=O)(=O)C3)nnc2n1 (stereo not drawn)	.	i	-3.7	1.8	.	-4.1	-17.5	1.8
Cc1ccc2nccc(C(=O)N3CCCC(Nc4ccc(F)cc4)C3)c2c1 (stereo not drawn)	2.1	i	-7.8	-3.0	8.5	2.5	-14.8	-3.7
O=C1NCCN1C(=O)c1ccco1	-56.9	i	4.1	0.8	-6.9	-2.0	-15.4	4.6
COc1cc(C(=O)O)nc(OC)n1	-6.0	i	1.5	4.1	-8.4	-3.1	.	-8.5
CCCCNC(=O)c1onc(CSc2cc(C)cc(C)c2)c1C(=O)NCCCC	?	i	-1.6	2.2	12.1	.	-2.3	.

13 compounds out of the list, sorted by length of the SMILES, falling:
SMILES	HIV Env fusion	Rce1 inh	MT1-MMP act inh	MT1-MMP act inh RFP	CSC inhib	eIF4H FP inh	UUG fidelity	PABP polyA inh	others
CC[C@@]12C(=O)N(c3ccc(C)cc3)C(=O)N1[C@H](c1ccc(Br)cc1)[C@@H]1C(=O)N(C(C)(C)C)C(=O)[C@@H]12	85.6*	i	-4.5	-7.6	-2.8	0.7	-6.6	14.4
CCc1ccc([C@@H]2CC=C(C(=O)O)[C@H](c3ccc(Cl)cc3)N2S(=O)(=O)c2ccc(C)cc2)cc1	3.7	.	-2.3	3.4	79.1*	.	-9.2	.
CC(Oc1ccc(Cl)cc1Cl)C(=O)Nc1ccc(S(=O)(=O)Nc2cnc3ccccc3n2)cc1 (stereo not drawn)	.	i	.	.	30.9	8.4	.	11.2
C/C(=N\NC(=O)c1cc(O)ccc1O)c1cccc(NC(=O)c2ccc(Cl)cc2)c1	-20.3	i	4.3	0.2	.	90.0*	-21.2	87.0*
COc1cc(NC(=O)c2ccc(S(=O)(=O)N(C)C)cc2)cc(OC)c1OC	.	i	1.8	-7.2	-4.7	-10.4	.	-4.4
O=C(NC1CCCN(c2ccc(C(F)(F)F)cn2)C1)c1cc(Cl)ccc1F (stereo not drawn)	19.7	.	1.2	-0.3	1.7	1.5	-8.5	-12.6
Cc1cc(C)n2c(SCC(=O)N(C)C3CCS(=O)(=O)C3)nnc2n1 (stereo not drawn)	.	i	-3.7	1.8	.	-4.1	-17.5	1.8
Cc1ccc2nccc(C(=O)N3CCCC(Nc4ccc(F)cc4)C3)c2c1 (stereo not drawn)	2.1	i	-7.8	-3.0	8.5	2.5	-14.8	-3.7
Cc1c(C)n(C)c2ccc(C(=O)NCCCN(C)C3CCCCC3)cc12	0.7	i	6.6	4.5	-3.1	3.3	-8.2	1.6
CC(=O)Nc1ccc2[nH]c3ccccc3c2c1	.	.	6.6	-1.9	21.1	99.1*	.	72.9*	eIF4H FP inh retest=90.6*;PABP polyA inh retest=97.7*
Cc1cccc(-c2n[nH]c(=S)n2C)c1	21.2	i	3.8	8.0	6.8	-7.7	.	6.1
COc1cc(C(=O)O)nc(OC)n1	-6.0	i	1.5	4.1	-8.4	-3.1	.	-8.5
O=C1NCCN1C(=O)c1ccco1	-56.9	i	4.1	0.8	-6.9	-2.0	-15.4	4.6

The listing continues:
SMILES	HIV Env fusion	Rce1 inh	MT1-MMP act inh	MT1-MMP act inh RFP	CSC inhib	eIF4H FP inh	UUG fidelity	PABP polyA inh	others
Cc1cccn2c(=O)c3cc(C(=O)N4CCCCC4C)sc3nc12 (stereo not drawn)	4.3	.	-0.6	6.4	.	.	-6.0	.
CCn1c(COc2cccc(C)c2C)nnc1SCC(=O)N1CCN(c2ccc(OC)cc2)CC1	?	i	3.8	-13.5	-2.5	-4.8	-4.6	-3.8
COC(=O)c1cc(NC(=O)c2cc(C(C)(C)C)nn2Cc2ccc(F)cc2)ccc1N1CCOCC1	19.6	i	-8.8	-13.5	2.1	3.2	-12.8	-0.8
CCOCCCNC(=S)NCCCNc1nc2cc3c(cc2cc1C#N)OCO3	.	i	-8.3	0.6	-10.8	8.3	.	1.5
COc1ccc(Oc2nc(C)cc(C)c2S(C)(=O)=O)cc1	.	i	-1.9	5.0	6.4	1.2	.	-5.0
Cc1occc1C(=O)NNC(=O)c1ccccc1C(=O)O	-2.9	i	-0.5	0.5	-5.6	-2.2	4.8	-2.2
Cc1[nH]c(=O)c(C#N)c(C)c1CCC(=O)N(C)CC(=O)Nc1ccc(Cl)c(Cl)c1	4.4	i	2.6	4.6	-13.5	-6.6	-8.1	6.2
CC1C2=C(CC(C)(C)CC2=O)NC2=C1C(=O)CC(C)(C)C2	-11.3	.	-0.8	1.9	-8.5	17.2	-6.0	-5.8
COc1ccc(Cl)cc1-c1nc(N)nc(NC2CCCCC2)n1	.	i	-1.5	4.3	-5.1	-2.3	-13.2	1.7
COC(=O)c1ccccc1N=Nc1c(C)[nH][nH]c1=O	-13.8	i	4.5	3.8	-5.3	4.3	-4.4	14.0
C=CCN(CC=C)S(=O)(=O)c1ccc(F)cc1	-10.6	i	2.7	1.8	-13.0	6.7	-25.7	-3.3
COc1ccc(-c2csc(N(CCCN(C)C)C(=O)c3ccccc3Cl)n2)cc1	3.6	i	-16.9	-16.0	24.5	.	13.5	.
